Methyltransferases: Primary Screen for Target Class Profiling of Small Molecule Inhibitors of Methyltransferases; purified enzyme, MTase-Glo SAH luminescence; active compounds read low; calls only at 40 µM; actives 3.9% (n = 25,000); AID 1745853, 2022; active = -50% or lower on at least one of six enzymes; inconclusive = the cases between; inactive = as a rule above -30% on all six;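 also: enzymes were COMT GAMT GNMT HNMT NNMT and PNMT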
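Each enzyme was assayed with SAM and its substrate. SAH formation detected by MTase-Glo luminescence; single-point 40 uM screen[…].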
Calls only; i = inactive; ? = inconclusive; + = active, no number; ! = not confirmed by another sample. % is scaled to controls: 0 for no effect and ±100 for the full control effect. An excerpt (hit frequency here may not be typical).

SMILES	Methyltransferases
Cc1c(C(=O)N[C@H](c2cnn(C)c2)C2CC(O)C2)sc2nc[nH]c(=O)c12 (stereo partly specified)	i
COc1cccc(CN2C(=O)c3cc4oc(C)cc4n3CC2(C)C(=O)NC2CCCCCC2)c1OC (stereo unspecified)	i
COc1ccc2cc3n(c2c1)CC(C)(C(=O)NC1CCCC1)N(Cc1ccco1)C3=O (stereo unspecified)	i
CNc1ccc(C(=O)NCCCc2c(C)noc2C)cn1	i
CCCCOc1ccc(S(=O)(=O)n2c(C)nc3ccccc32)cc1	i
CC1CNCCN1S(=O)(=O)c1cccc2cnccc12 (stereo unspecified)	i
O=C(CCc1nnc2n(CCc3ccccc3)c(=O)c3ccccc3n12)NCCc1ccccc1	i
COc1ccc(CNC(=O)Cn2nc3n(Cc4ccccc4)c(=O)c4ccccc4n3c2=O)cc1	i
CC(C)CNC(=O)c1ccc2c(=O)n(C(C)C)c3nn(CC(=O)NC4CCCCC4)c(=O)n3c2c1	i
CC(C)CCN1C(=O)c2cc3ccccc3n2CC1(C)C(=O)NC1CCCCC1 (stereo unspecified)	i
CCOc1ccc(NC(=O)c2ncn3c2C(=O)N(C2CC2)C(C)(C(=O)NCc2ccccc2OC)C3)cc1 (stereo unspecified)	i
O=C1NC(=NCc2cccs2)S/C1=C/c1ccc2ncccc2c1	?
CC(C)CCn1c(=O)c2ccc(C(=O)NCC(C)C)cc2n2c(=O)n(Cc3ccccc3Cl)nc12	i
CCC(=O)N1CCc2sc(C(=O)N3CCN(c4cccc(Cl)c4)CC3)cc2C1	i
Cn1cc(C2=C(c3coc4ccccc34)C(=O)NC2=O)c2cc(Br)ccc21	?
CC1CCC(N2C(=O)c3ccc(-c4ccco4)n3CC2(C)C(=O)NC2CCCCCC2)CC1 (stereo unspecified)	i
Cn1c(=O)c2ccc(C(=O)NC3CCCC3)cc2n2c(SCC(=O)NC3CCCCC3)nnc12	i
O=C(NC[C@H]1OC[C@@H](NCc2ncc[nH]2)[C@@H]1O)c1cccs1	i
COC(=O)C1(C)CCC2(C(=O)O)CCC3(C)C(=CCC4C5(C)CC(O)C(OC6OCC(O)C(O)C6O)C(C)(CO)C5CCC43C)C2C1 (stereo unspecified)	i
O=C(NCCc1ccc(Cl)cc1)c1ccc2c(=O)nc3c(-c4cccc(F)c4)n[nH]n3c2c1	i
CC1(C(=O)NC2CCCCCC2)Cn2nc(-c3ccco3)cc2C(=O)N1CCc1ccccc1 (stereo unspecified)	i
CCS(=O)(=O)N1CC(F)(F)C[C@H]1c1nc(-c2cccnc2)no1	i
C=CC1(C)CC(O)C2(CCC3C(C)(C(=O)O)CCCC3(C)C2=O)C1 (stereo unspecified)	i
CC(C)C(=O)N1CCC(c2nc(-c3cccnn3)no2)CC1	i
CCOC(=O)c1cc2n(n1)CC(C)(C(=O)NCc1ccc(F)cc1)N(CCc1ccc(OCC)cc1)C2=O (stereo unspecified)	i
CCCCCNC(=O)c1ccc2c(=O)nc3c(-c4ccc(OC)cc4)n[nH]n3c2c1	i
Cc1ccc(Cn2c(=O)c3ccccc3n3c(CCC(=O)N4CCN(C5CCCCC5)CC4)nnc23)cc1	i
CC(C)c1ccc(CN2CC(CNC(=O)C3CCOCC3)C3(C2)CN(c2ccccc2)C3)cc1 (stereo unspecified)	i
CC(C)OCCCn1c(=O)c2ccccc2n2c(CCC(=O)Nc3ccc(F)c(F)c3)nnc12	i
Cn1ncc(S(=O)(=O)Cc2ccccc2)c(Br)c1=O	i
N#Cc1cc([N+](=O)[O-])c2sc(C(N)=O)[n+]([O-])c2c1	?
Cc1ccc(Cn2c(=O)c3ccccc3n3c(CCC(=O)NC(C)C)nnc23)cc1	i
COc1ccc(C[C@H](NC(=O)C2=C[C@@H](Oc3cc(F)ccc3Br)[C@H](O)[C@H](O)C2)C(N)=O)cc1	i
CCc1cc2c(cc3n2CC(C)(C(=O)NC2CCCCC2)N(c2cc(C)cc(C)c2)C3=O)s1 (stereo unspecified)	i
O=c1c2nc(-c3ccsc3)ccc2ncn1-c1ccccc1	i
CCCn1c(=O)c2ccc(Cl)cc2n2c(SCC(=O)Nc3cccc(OC)c3)nnc12	i
CC(C)CCN(C1CCOCC1)C1CCN(Cc2cccnc2)CC1	i
COc1nccnc1-c1cc(NCCN(C)C)nc2[nH]ccc12	i
COc1cccc(CN2C(=O)c3cc4occc4n3CC2(C)C(=O)NC2CCCCCC2)c1OC (stereo unspecified)	i
O=C(N[C@H]1C[C@@H]2OCC[C@H]12)c1cccc(-n2cnnc2)n1	i
CC(C)CCNC(=O)C1(C)Cn2c(cc3ccccc32)C(=O)N1Cc1cccnc1 (stereo unspecified)	i
CCCc1nc2c3ccccc3n(CC(=O)N3CCN(c4ccc(F)cc4)CC3)c(=O)n2n1	i
O=C1NCCC[C@@H]1NC(=O)[C@H]1CN(C(=O)C2CCNCC2)CCN1C(=O)c1cccs1	i
COC(=O)[C@H](NC(=O)[C@@H]1C[C@H](NC(=O)Nc2ccc(OC)cc2)CN1C(=O)CSC)C(C)C	i
COc1ccc(OC)c(CNC(=O)CC2C(=O)NCCN2CC=C(C)C)c1 (stereo unspecified)	i
CC1CN(c2ccccc2C#N)C(=O)CN1C(=O)c1ccc2c(c1)OCCO2 (stereo unspecified)	i
CN(C)c1cc2c(Nc3ccc4c(cnn4Cc4ccccc4)c3)ncnc2cn1	+!
CN1C(=O)c2cc(C(=O)N3CCOCC3)nn2CC1(C)C(=O)NCc1ccc(F)cc1 (stereo unspecified)	i
Cc1cc2[nH]c(=O)[nH]c2cc1S(=O)(=O)Nc1cccc(Cl)c1	i
CCOc1ccc(CNC(=O)c2cc3n(n2)CC(C)(C(=O)NC2CCCCC2)N(C)C3=O)cc1 (stereo unspecified)	i
CC1(C)CCC[C@@]2(C)[C@H]1[C@H](O)C=C1COC(=O)[C@@]12O	i
COc1ccc(N2C(=O)CSc3c(c4ccccc4n3C)C2C(=O)NCc2ccc(F)cc2)cc1OC (stereo unspecified)	i
C/C1=C\C[C@H](O[C@@H]2O[C@H](CO)[C@@H](O)[C@H](O)[C@H]2O)/C(C)=C/[C@H]2OC(=O)[C@H](C)[C@@H]2CC1	i
CC(C)Cn1c(=O)c2ccc(C(=O)NC3CCCC3)cc2n2c(=O)n(CC(=O)c3ccccc3)nc12	i
CC(C)CCN1C(=O)c2ccccc2CC1(C)C(=O)NC1CCCCCCC1 (stereo unspecified)	i
C/C=C/C=C/C(O)=C1\C(O)=C(C)C(=O)[C@@]2(C)OC(=O)[C@@](C)(NC(=O)/C=C/C(=O)O)[C@@H]12	i
OC[C@H]1O[C@@H](O[C@H]2[C@H](OCc3ccccc3)O[C@H](CO[C@@H]3OC[C@@H](O)[C@H](O)[C@H]3O)[C@@H](O)[C@@H]2O)[C@H](O)[C@@H](O)[C@@H]1O	i
CCn1c(=O)n(CC)c2cc(S(=O)(=O)N3CCN(c4cccc(C)c4)C(C)C3)ccc21 (stereo unspecified)	i
Cc1ccc2nc(C(NC(=O)C3CCN(CC(N)=O)CC3)C(C)C)[nH]c2c1 (stereo unspecified)	i
COc1ccc(CCN2C(=O)c3cc4occc4n3CC2(C)C(=O)NC2CCCCC2C)c(OC)c1 (stereo unspecified)	i
The list continues.
SMILES	Methyltransferases
O=C(NCc1cccnc1)c1ccc2c(=O)nc3c(-c4ccccc4)n[nH]n3c2c1	i
CC1(C)CC[C@]2(C(=O)O)CC[C@]3(C)C(=CCC4[C@@]5(C)C[C@H](O)[C@H](O[C@@H]6OC[C@H](O)[C@H](O)[C@H]6O)[C@@](C)(CO)C5CC[C@]43C)[C@@H]2C1 (stereo partly specified)	i
O=C(CCc1nnc2n(Cc3ccc(Cl)cc3)c(=O)c3ccccc3n12)NCc1ccc2c(c1)OCO2	i
CCn1c(=O)n(CC)c2cc(S(=O)(=O)N3CCN(c4ccc(C)cc4C)CC3)ccc21	i
CC(C)CCNC(=O)C1(C)Cn2nc(C(=O)NCc3ccccc3Cl)cc2C(=O)N1C (stereo unspecified)	i
CC(O)(C(=O)C1CC1(CO)COC1OC(CO)C(O)C(O)C1O)C1C(O)CC2C3CC=C4CC(O)CC(O)C4(C)C3C(O)CC21C (stereo unspecified)	i
CC(C)CN1CCN(C(=O)c2ccc3c(c2)CC(=O)N3Cc2ccc(F)cc2)CC1	i
Cc1ccc2c(c1)c(=O)[nH]c1c(C(=O)NCc3ccc4c(c3)OCO4)sc(=S)n12	+
CN1C(=O)N(C)C2(CCN(CCOc3ccccc3)C2)C1=O (stereo unspecified)	i
COc1ccc(N2CCN(S(=O)(=O)c3cc4c(cc3Cl)n(C)c(=O)n4C)CC2)cc1	i
COc1ccc2c(c1)CC(NS(=O)(=O)c1cc(Cl)ccc1OC)CO2 (stereo unspecified)	i
CCOC(=O)c1cc2n(n1)CC(C)(C(=O)NCc1ccc(C)cc1)N(CCCc1ccccc1)C2=O (stereo unspecified)	i
CC(C)n1c(=O)c(C(=O)NC2CC3CCC(C2)N3C[C@@H](O)CN(C)S(C)(=O)=O)cc2ccccc21 (stereo partly specified)	i
CC1=C(C)C(=O)C(CCCCC#CCCCC#CCO)=C(C)C1=O	?
c1ccc(-c2nnc([C@H]3CCN(C4CCC4)C3)o2)cc1	i
CC(C)(C)c1coc([C@@H]2COCCN2C2CCC2)n1	i
CC/C=C/CC1=C(CCCCC(CCC(=O)O)OC(C)=O)CCC1=O (stereo unspecified)	i
CC1(C(=O)NC2CCCC2)Cn2c(c(-n3cccc3)c3ccccc32)C(=O)N1CCc1cccs1 (stereo unspecified)	i
CCc1nc(C)sc1C(=O)N1C[C@@H](C(=O)O)[C@H](c2cccc(OC)c2)C1	i
OCC1OC(Oc2cc(O)c3c(c2)OC(c2ccc(O)cc2)C(O)C3)C(O)C1O (stereo unspecified)	i
CCOC(=O)c1cc2n(n1)CC(C)(C(=O)NC1CCCC1)N(c1ccc(CC)cc1)C2=O (stereo unspecified)	i
CC1=CC(=O)C[C@H]2[C@@H]1CC[C@@H](C)[C@]21CO[C@H](c2ccoc2)C1=O	i
C=C1C(OC(C)=O)C(=O)C2C(C)(C)C(OC(C)=O)CCC2(C)C1CC(OC(C)=O)/C(C)=C/COC(C)=O (stereo unspecified)	i
Cn1c(=O)c2ccc(C(=O)NC3CCCCC3)cc2n2c(SCC(=O)Nc3ccc(F)cc3)nnc12	i
O=C1NCCOCCN(C(=O)Nc2ccc3c(c2)OCCO3)[C@@H]2CCCC[C@H]12	i
CC(C)=CCC(O)[C@](C)(O)C1[C@H](O)C[C@@]2(C)C3CC=C4C(C[C@H](O)[C@@H](O[C@@H]5O[C@H](CO)[C@@H](O)[C@H](O)[C@H]5O)C4(C)C)[C@]3(C)C(=O)C[C@]12C (stereo partly specified)	i
Cc1ccc(Cn2c(=O)c3ccccc3n3c(SCC(=O)Nc4ccc(F)cc4F)nnc23)cc1	i
CC1(C(=O)NC2CCCC2)Cn2c(nc3ccccc32)C(=O)N1Cc1cccc(Br)c1 (stereo unspecified)	i
CC(C)NC(=O)c1nc(-c2ccc([S+](C)(=O)[O-])cc2)c2ccccn12	i
CCc1cnc(C2CCN(C(=O)OC(C)(C)C)CC2)[nH]1	i

Gathered by group: those above containing a cyano group
SMILES	Methyltransferases
N#Cc1cc([N+](=O)[O-])c2sc(C(N)=O)[n+]([O-])c2c1	?
CC1CN(c2ccccc2C#N)C(=O)CN1C(=O)c1ccc2c(c1)OCCO2 (stereo unspecified)	i

The results go on:
SMILES	Methyltransferases
CC(C)CCn1c(=O)c2ccc(C(=O)NC3CCCC3)cc2n2c(=O)n(CC(=O)NC(C)C)nc12	i
COC(=O)C1=C(C)NC(C)=C([N+](=O)[O-])C1c1ccccc1C(F)(F)F (stereo unspecified)	i
CC(C)n1cc2cc(C(=O)O)sc2c1	i
C=CS(=O)(=O)NC1CCN(C(=O)CNc2cc(I)c(Cl)cc2OC)CC1	i
CC(C)OCCCn1c(=O)c2ccccc2n2c(CCC(=O)N3CCN(Cc4ccccc4)CC3)nnc12	i
O=c1c2ccccc2n2c(-c3ccccc3F)nnc2n1Cc1ccc(F)cc1	i
COc1ccc(CNc2nccc(CCC(F)(F)F)n2)cc1OC	i
CC1(C)CC[C@]2(C(=O)O[C@@H]3O[C@H](CO[C@@H]4O[C@H](CO)[C@@H](O)[C@H](O)[C@H]4O)[C@@H](O)[C@H](O[C@@H]4O[C@H](CO)[C@@H](O)[C@H](O)[C@H]4O)[C@H]3O)CC[C@]3(C)C(=CCC4[C@@]5(C)CC[C@H](O[C@@H]6OC[C@@H](O)[C@H](O)[C@H]6O)[C@@](C)(C(=O)O)C5CC[C@]43C)[C@@H]2C1 (stereo partly specified)	i
Cc1cccc(N2C(=O)c3cc(-c4ccco4)nn3CC2(C)C(=O)NC2CCCCC2)c1C (stereo unspecified)	i

Entries listed so far containing an NH in an aromatic ring, in the order listed:
SMILES	Methyltransferases
Cc1c(C(=O)N[C@H](c2cnn(C)c2)C2CC(O)C2)sc2nc[nH]c(=O)c12 (stereo partly specified)	i
O=C(NC[C@H]1OC[C@@H](NCc2ncc[nH]2)[C@@H]1O)c1cccs1	i
O=C(NCCc1ccc(Cl)cc1)c1ccc2c(=O)nc3c(-c4cccc(F)c4)n[nH]n3c2c1	i
CCCCCNC(=O)c1ccc2c(=O)nc3c(-c4ccc(OC)cc4)n[nH]n3c2c1	i
COc1nccnc1-c1cc(NCCN(C)C)nc2[nH]ccc12	i
Cc1cc2[nH]c(=O)[nH]c2cc1S(=O)(=O)Nc1cccc(Cl)c1	i
Cc1ccc2nc(C(NC(=O)C3CCN(CC(N)=O)CC3)C(C)C)[nH]c2c1 (stereo unspecified)	i
O=C(NCc1cccnc1)c1ccc2c(=O)nc3c(-c4ccccc4)n[nH]n3c2c1	i
Cc1ccc2c(c1)c(=O)[nH]c1c(C(=O)NCc3ccc4c(c3)OCO4)sc(=S)n12	+
CCc1cnc(C2CCN(C(=O)OC(C)(C)C)CC2)[nH]1	i

Screening results as filed in PubChem.
